High-throughput results (PubChem)
Hsc70 = small molecules displacing fluorescent ligand from Hsc70 – biochemical, fluorescence polarization, primary screen (AID 568); Hsc70 fluorescence polarization, probe displacement; higher % means a stronger effect; strong numbers were not always called active; displacement, % at 20 µM, or IC50 in µM where a hit was titrated; 83,000 tested, under 10 active;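 active = displacement above 50% without optical interference and an IC50 on retest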;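 also: ATPase domain with a fluorescein-tagged ATP probe; 0% = vehicle and 100% = excess ADP; read after one hour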
WNV NS2B-NS3 inh = WNV NS2B-NS3 proteinase inhibition; 65,000 tested, 0.18% active; WNV NS2B-NS3 protease, fluorogenic substrate Ex360/Em465; active compounds read low; z-score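 (tested at a level between 10 and 100 µM)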;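 active = z-score at -3 or under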;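 also: score is relative to mean and spread of the compound wells of a plate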
Target sequence (P06935 1371-1501 limits assumed): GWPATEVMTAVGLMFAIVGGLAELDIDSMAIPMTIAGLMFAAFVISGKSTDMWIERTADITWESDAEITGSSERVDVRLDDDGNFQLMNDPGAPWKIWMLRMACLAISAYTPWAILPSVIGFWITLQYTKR
Target sequence (P06935 1502-1679 limits assumed): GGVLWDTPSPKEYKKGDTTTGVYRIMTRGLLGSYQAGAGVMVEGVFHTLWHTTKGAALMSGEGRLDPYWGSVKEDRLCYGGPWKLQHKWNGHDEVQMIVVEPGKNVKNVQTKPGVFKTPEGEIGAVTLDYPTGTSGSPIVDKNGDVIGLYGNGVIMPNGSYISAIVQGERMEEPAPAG
MT1-MMP promoter = inhibitors of MT1-MMP promoter transcription, cell-based, luciferase reporter, luminescence (AID 618). 87,000 tested, 0.62% active. MT1-MMP promoter luciferase reporter cells, luminescence. calls from a first round at 10 µM; hits with a dose series show EC50 in µM;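 active = over half of the reporter light lost at 10 µM or EC50 under 50 µM; inactive = the rest and hits that failed the dose series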;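 also: actives suppress MT1-MMP promoter-driven transcription so potencies describe inhibitors; HT1080 fibrosarcoma cells; overnight exposure; toxic or luciferase-blocking compounds were not removed from the actives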
Starred values were filed as active, the others as inactive; i = inactive; · = no result given.

Each structure is followed by: Hsc70 | WNV NS2B-NS3 inh | MT1-MMP promoter
Cc1cc(C)cc(OCC(=O)NCc2nc(-c3ccccc3)no2)c1
  -1.9% | -0.29 | i
Cc1ccc(C2C(C(=O)c3cc4ccccc4o3)=C(O)C(=O)N2CCN(C)C)o1 (centres undefined)
  -8.1% | -0.29 | i
Cc1nc(N2CCOCC2)nc2c1CCCC2
  0.7% | · | i
CC#CCCCC(=O)Nc1ccccc1C(=O)O
  4.0% | 2.4 | i
O=C(CSc1nnc(-c2cccs2)n1Cc1ccco1)c1ccc2c(c1)OCO2
  1.0% | 0.61 | i
Clc1ccc(Oc2nnnn2-c2ccccc2)cc1
  -4.7% | · | i
CCCC(=O)N1c2ccc(-c3csc(N)n3)cc2CC1C (centres undefined)
  -4.7% | -0.27 | i
Cc1n[nH]c(=O)nc1NC(C)c1ccccc1 (centres undefined)
  -4.5% | · | i
CCN(CC)C(=O)C1CCN(CC2CC=CCC2)CC1 (centres undefined)
  6.9% | -0.42 | i
CCOc1ccc(OCC)c(NC(=O)CN2CCN(c3cc(C)ccc3C)CC2)c1
  3.9% | 1.8 | i

(further entries)
Each structure is followed by: Hsc70 | WNV NS2B-NS3 inh | MT1-MMP promoter
O=C(c1csc2c1CCCC2)N1CCN(c2ncccn2)CC1
  2.2% | -0.48 | i
COc1nc(OC)nc(N2CCC(C(=O)Nc3cccc4c3CCCC4)CC2)n1
  2.0% | 0.05 | i
CC(C)NC(=O)CCS(=O)(=O)c1ccc(Br)s1
  -2.4% | -1.2 | i
CCN(CC)CCN1C(=O)c2ccccc2NC1c1ccccc1F (centres undefined)
  -0.2% | · | i
COC(=O)c1cc(Br)c(=O)n(-c2ccc(OC)cc2)c1
  -1.5% | 0.84 | i
O=C(CSc1nnc(-c2ccc(Cl)s2)o1)N1CCOCC1
  7.4% | 1 | i
Cc1nn(-c2cc(Cl)ccc2N)c(=O)c2ccccc12
  -2.0% | 1.8 | i
CCn1c(SCCN2CCCCC2)nnc1-c1ccc(S(=O)(=O)N2CCOCC2)cc1
  -3.1% | 0.44 | i
COc1ccc(OC)c(C2C(C(=O)c3ccco3)=C(O)C(=O)N2CCCN2CCOCC2)c1 (centres undefined)
  -2.3% | 0.82 | i
CN(C)c1nc(Oc2ccc(C(=O)OCC(=O)Nc3ccccc3)cc2)nc(N(C)C)n1
  -4.8% | 0.55 | i

Random excerpt: four entries already listed.
Each structure is followed by: Hsc70 | WNV NS2B-NS3 inh | MT1-MMP promoter
Cc1nn(-c2cc(Cl)ccc2N)c(=O)c2ccccc12
  -2.0% | 1.8 | i
O=C(c1csc2c1CCCC2)N1CCN(c2ncccn2)CC1
  2.2% | -0.48 | i
CCN(CC)CCN1C(=O)c2ccccc2NC1c1ccccc1F (centres undefined)
  -0.2% | · | i
COC(=O)c1cc(Br)c(=O)n(-c2ccc(OC)cc2)c1
  -1.5% | 0.84 | i

New compounds follow.
Each structure is followed by: Hsc70 | WNV NS2B-NS3 inh | MT1-MMP promoter
CCOC(=O)c1sc2nc3c(cc2c1N)COC(C)(C)C3
  -1.0% | -0.8 | i
CN1/C(=C\C(=O)C(F)F)C(C)(C)c2ccccc21
  2.2% | 0.41 | i
COc1ccccc1C(=O)Nc1cc(-c2nn3c(C)nnc3s2)ccc1C
  -0.3% | -1.4 | i
Cc1cc(-c2ccccc2)nc(N2CCN(c3ccccn3)CC2)n1
  7.0% | -0.02 | i
Cc1ccc(N(CC(=O)N2CCOCC2)S(C)(=O)=O)cc1C
  -3.6% | · | i
O=C1CCC(/C=C/c2ccccc2)=NN1Cc1ccccc1Cl
  4.4% | · | i
Cc1ccc(CNC(=O)C2c3ccccc3C(=O)N3CCc4ccccc4C23)o1 (centres undefined)
  -1.4% | 0.64 | i
O=C(COc1ncnc2ccc(Br)cc12)Nc1ccc(N2CCOCC2)cc1
  -4.3% | -0.61 | i
CCOC(=O)c1oc2c(CN3CCCCC3C)c(O)ccc2c(=O)c1-c1ccc(OC)c(OC)c1 (centres undefined)
  3.6% | -0.28 | i
O=C(NCc1ccc(F)cc1)C(c1ccncc1)N(C(=O)c1csnn1)C1CC1 (centres undefined)
  5.1% | · | i

Carrying on.
Each structure is followed by: Hsc70 | WNV NS2B-NS3 inh | MT1-MMP promoter
Cc1cccc(C(=O)NCCN(C)C)c1
  -2.6% | · | i
CCOC(=O)N1CCN(C(=O)c2ccc3c(c2)NC(=O)C(N2CCOCC2)S3)CC1 (centres undefined)
  -8.7% | 0.8 | i
C=C(C)c1nc(N)nc(N)n1
  4.5% | -0.14 | i
COc1ccc(S(=O)(=O)N2CCN(c3ccc(C)cc3C)CC2)cc1OC
  3.1% | -0.88 | i
CCCCSc1nnc2nc(C)cc(C)n12
  1.9% | 0.46 | i
COc1ccc(N2CCN(S(=O)(=O)c3cccc(C(F)(F)F)c3)CC2)cc1
  -0.3% | -0.41 | i
CCOc1ccc(C2CC(=O)NC3=C2C(=O)CCC3)cc1Cl (centres undefined)
  7.9% | -1 | i
O=C(CN1CCN(c2nc(-c3ccccc3)cs2)CC1)NCc1ccc2c(c1)OCO2
  -8.4% | -0.57 | i
COCCCNC(=O)CCCn1c(=O)[nH]c2ccccc2c1=O
  -3.6% | -1.1 | i
Cc1cc(C(=O)NCc2ccccc2)c(=O)[nH]c1C
  0.0% | -0.08 | i

(listing goes on)
Each structure is followed by: Hsc70 | WNV NS2B-NS3 inh | MT1-MMP promoter
COC(=O)C1=C(C)N(CCC2=CCCCC2)C(=O)C1
  1.3% | -0.94 | i
CCOc1ccc(S(=O)(=O)NCCSCc2ccco2)cc1
  -3.2% | · | i
CCC(CC)C(=O)NCCc1cc2cc(C)c(C)cc2[nH]c1=O
  4.3% | 0.01 | i
O=C(Cn1c(SCC(=O)NC2CCCC2)nnc1-c1ccncc1)Nc1ccc2c(c1)OCO2
  -1.9% | 0.13 | i
CCOC(=O)c1sc(=S)n(-c2cc(F)ccc2F)c1N
  -4.9% | -0.8 | i
O=C(C1CC(=O)N(c2ccccc2)C1)N1CCN(C2=NS(=O)(=O)c3ccccc32)CC1 (centres undefined)
  3.0% | -0.49 | i
CCOc1cc(C2C(C(=O)OC)=C(C)N=C3SC(C)C(=O)N32)ccc1OC(C)=O (centres undefined)
  2.0% | 0.46 | i
c1ccc(-n2ncc3c(NCc4cccs4)ncnc32)cc1
  -4.8% | 0.93 | i
CSc1nc(-c2ccccc2)nc(N2CCCC2)c1C(C)=O
  -6.7% | -0.08 | i
Cc1c(-n2c(CN3C(=O)c4ccccc4C3=O)nc3ccccc3c2=O)c(=O)n(-c2ccccc2)n1C
  3.2% | -0.91 | i

Next section.
Each structure is followed by: Hsc70 | WNV NS2B-NS3 inh | MT1-MMP promoter
COc1ccc2[nH]c(C)c(C(=O)CN3CCc4cc(OC)c(OC)cc4C3)c2c1
  -5.7% | 0.58 | i
N#Cc1ccc(CSc2nnc(-c3cnccn3)o2)cc1
  -1.6% | -0.82 | i
N#Cc1c(N)[nH]c(=S)c(C#N)c1-c1ccccc1
  -1.7% | -1.6 | i
COc1ccccc1-c1c(C)oc2cc(OC(=O)c3ccco3)ccc2c1=O
  -2.4% | -0.34 | i
CCOc1nc2ccccc2nc1NS(=O)(=O)c1ccccc1
  1.6% | 0.23 | i
c1ccc(N2CCN(CCc3nnc4n3CCCCC4)CC2)cc1
  -3.9% | 0.26 | i
COc1ccc(-c2[nH]ncc2-c2ccc(Cl)cc2)c(O)c1
  4.4% | 0.56 | i
COCCn1c(=S)[nH]c2cc(C(=O)N3CCc4ccccc43)ccc2c1=O
  -12% | -0.46 | i
NNC(=O)CN1C(=O)Nc2ccc(Br)cc2C1c1ccccc1 (centres undefined)
  0.8% | · | i
CN(C)c1ccc(N=Cc2nc(-c3ccccc3)oc2O)cc1
  69% | 0.74 | i

3 compounds out of the list, ordered by SMILES length, lowest first:
Each structure is followed by: Hsc70 | WNV NS2B-NS3 inh | MT1-MMP promoter
N#Cc1ccc(CSc2nnc(-c3cnccn3)o2)cc1
  -1.6% | -0.82 | i
CN(C)c1ccc(N=Cc2nc(-c3ccccc3)oc2O)cc1
  69% | 0.74 | i
COCCn1c(=S)[nH]c2cc(C(=O)N3CCc4ccccc43)ccc2c1=O
  -12% | -0.46 | i

The results go on.
Each structure is followed by: Hsc70 | WNV NS2B-NS3 inh | MT1-MMP promoter
Cc1ccc2nc(N3CCN(Cc4nnnn4C4CCCC4)CC3)c(C#N)cc2c1
  2.7% | · | i
CCOC(=O)C(Cc1ccccc1)NC(=O)CCc1c(C)nc2ncnn2c1C (centres undefined)
  -6.9% | 0.82 | i
CC1CC2(CCCCC2)Nc2c1ccc1ccccc21 (centres undefined)
  -1.6% | · | i
Nc1nonc1C(=Nc1ccc(Br)cc1)NO
  5.5% | · | i
COC(=O)c1ccccc1NC(=O)N1CCCC1
  3.9% | 0.27 | i
CC(=O)Nn1cc2c(=O)n(C)c(=O)n(C)c2c1
  4.5% | -0.4 | i
COCCCN1C(=O)C(O)=C(C(=O)c2ccco2)C1c1ccccc1 (centres undefined)
  -4.2% | 0.85 | i
N#Cc1ccccc1CSc1nc(O)cc(=O)[nH]1
  2.7% | -0.95 | i
O=C(NC1CCCc2ccccc21)c1ccc(CNc2c(N3CCOCC3)c(=O)c2=O)cc1 (centres undefined)
  2.8% | 0.8 | i
Cc1nn(Cc2ccccc2Cl)c(C)c1NC(=O)c1noc2c1CCCCC2
  3.2% | 1.7 | i

The list goes on.
Each structure is followed by: Hsc70 | WNV NS2B-NS3 inh | MT1-MMP promoter
CCCN1C2CCCC1CC(NC(=O)Nc1ccc(C(C)C)cc1)C2 (centres undefined)
  -4.0% | · | i
CC(C)n1c(SCC(N)=O)nc2c1c(=O)n(C)c(=O)n2C
  0.5% | -0.5 | i
COc1cccc(C2CC(c3cccc(Br)c3)n3ncnc3N2)c1 (centres undefined)
  2.6% | 0.03 | i
CC(C)=CC(=O)OCC(=O)Nc1ccccc1Cl
  1.5% | -0.9 | i
O=C(O)CNS(=O)(=O)c1ccc(F)cc1
  1.9% | 0.1 | i
CCn1c(SCC(=O)Nc2ccc3c(c2)c2ccccc2n3CC)nnc1-c1ccco1
  -1.8% | -3* | i
COc1ccc(N2CCN(C(=O)c3cccc(N4C(=O)C5CC=CC(C)C5C4=O)c3)CC2)cc1 (centres undefined)
  1.2% | 1.8 | i
CCn1cc(C(=O)NCCCOC(C)C)c2cc(OC)c(OC)cc2c1=O
  -0.7% | 0.62 | i
Cc1ccc(CS(=O)(=O)Cc2ccc(C(=O)NCCCN3CCOCC3)o2)cc1
  -3.3% | -0.45 | i
CN1CCN(C(=O)c2ccc3c(c2)NC(=O)C(C)(C)O3)CC1
  -2.0% | 1.3 | i

Next part.
Each structure is followed by: Hsc70 | WNV NS2B-NS3 inh | MT1-MMP promoter
O=C(Cn1cnc2c(cnn2-c2ccc(Cl)cc2)c1=O)NCC1CCCO1 (centres undefined)
  -5.0% | 0.13 | i
CC(Oc1ccc(C(=O)NCCc2ccccc2)cc1)C(=O)O (centres undefined)
  -1.1% | · | i
Cc1ccc2c(c1)c1nc3ccccc3nc1n2CCN1CCOCC1
  -1.3% | -0.35 | i
CNC(=O)c1[nH]cnc1C(=O)Nc1ccc(C)cc1
  1.3% | · | i
CSc1nc(C)c2c(c1C#N)CCCC2
  -4.5% | 0.05 | i
O[C@@H]1C2CCCC1[C@]1(O)CCCCC1C2 (some centres undefined)
  2.9% | -1.2 | i
O=C(C1CC1)N1CCc2cc(S(=O)(=O)N3CCCc4ccccc43)ccc21
  -0.6% | -0.94 | i
CCOc1cc(/C=N/Nc2nc(N3CCCC3)nc(N3CCCC3)n2)ccc1O
  1.3% | · | i
Cn1cc(CNC(=O)COc2ccc(Cl)cc2Cl)cn1
  6.2% | -0.07 | i
CCOC(=O)CSc1nc2ccccc2c(=O)n1CCC(=O)NCCc1ccc(OC)c(OC)c1
  -4.7% | · | i

More entries.
Each structure is followed by: Hsc70 | WNV NS2B-NS3 inh | MT1-MMP promoter
Cn1nc(-c2ccc(OCC(=O)Nc3ccccc3)cc2)c2ccccc2c1=O
  -2.2% | · | i
Cc1cc(NC(=O)CN2C(=O)NC(C)(c3ccc(OC(F)F)cc3)C2=O)no1 (centres undefined)
  -3.1% | · | i
CCC(c1nnnn1C1CCCC1)N(Cc1cccs1)Cc1cc2cc(C)ccc2[nH]c1=O (centres undefined)
  -28% | -0.93 | i
CCOc1ccc(S(=O)(=O)NCc2ccc(C)cc2)c2cccnc12
  1.5% | · | i
O=C(COc1ccc(N2CC(C(=O)O)CC2=O)cc1)Nc1cccc(C(F)(F)F)c1 (centres undefined)
  3.3% | -1.3 | i
Cc1nc2c(c(=O)n1CC1CCCO1)c1nc3ccccc3nc1n2CC(C)C (centres undefined)
  -1.1% | 0.42 | i
Clc1ccc(C2CC(c3cccs3)n3ncnc3N2)c(Cl)c1 (centres undefined)
  -2.9% | 0.77 | i
Cc1sc2ncnc(SCC(=O)N3CCN(C(=O)c4ccco4)CC3)c2c1C
  2.9% | 0.2 | i
Cc1cccc(NC(=O)c2c(O)c3cccc4c3n(c2=O)CCC4)n1
  2.0% | 0.8 | i
Cn1c(Cn2c(=O)sc3ccccc32)nnc1SCC(=O)Nc1ccc(Cl)cc1
  1.6% | -0.86 | i

The list goes on.
Each structure is followed by: Hsc70 | WNV NS2B-NS3 inh | MT1-MMP promoter
COc1ccc(-n2c(SCC(=O)N3CCCCC3C)nnc2-c2cccnc2)cc1 (centres undefined)
  0.9% | -0.11 | i
Cc1oc2cc(O)cc(C)c2c(=O)c1-c1cnn(-c2ccccc2)c1
  -4.0% | 0.45 | i
O=C(O)COc1ccc(S(=O)(=O)c2ccc(OCC(=O)O)cc2)cc1
  -5.4% | -0.32 | i
COC(=O)c1ccc(NC(=O)C23CC4CC(C2)CC(n2cnc(Cl)n2)(C4)C3)cc1
  -0.6% | · | i
